Source: PubChem
Mtb growth – M. tuberculosis H37Rv growth inhibitors, H37Rv strain (AID 1626); actives 0.95% (n = 220,000); M. tuberculosis H37Rv growth inhibition; higher % means a stronger effect; one-dose inhibition, % at 10 µM; IC50 in µM for titrated hits;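 active means confirmed in a dose series; inconclusive means inhibition above 80% but not taken into the dose series; inactive means below 80% or under 30% at every dose of the series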;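 further: bacteria incubated seven days before Alamar blue readout; 0% = bacteria only wells and 100% = bacteria with antibiotic wells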
Mtb betalactam – beta-lactam sensitization of Mtb H37Rv | inhibition, % at 25 µM | M. tuberculosis H37Rv growth with meropenem, percent inhibition; hits of this screen are not shown here | actives 0.27% (n = 330,000);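 active means about 74% or more and at least 40 points above the plate without the antibiotic, then above 30% in a dose series; inconclusive means first-round hits that could not be retested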;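 further: growth measured after seven days incubation then overnight dye step; 0% = bacteria only wells and 100% = bacteria with antibiotic; twin plates without the antibiotic show which effects depend on it; some results filed as inactive read as strong as hits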
YopH PTP inh – blocks Yersinia enterocolitica YopH tyrosine phosphatase | fluorescence Ex485/Em525 | inhibition, %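 (about 10 µM by stock and volumes)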 | actives 0.16% (n = 140,000) | AID 898;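 active means inhibition of 50% or more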;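 further: controls were vehicle for no effect and minimum signal wells for full effect; inactives centre near -20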
RecA intein inh – Mtb RecA intein splicing inhibition; cell-free RecA intein splicing, fluorescence; inhibition, %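 (about 9 µM by stock and volumes)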; actives 0.75% (n = 290,000); in the data active means inhibition above about 30%; inconclusive means no clear call, values can overlap the other calls;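 further: 0% = vehicle wells and 100% = reference inhibitor control wells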
Target sequence (P9WHJ3 whole entry, looked up): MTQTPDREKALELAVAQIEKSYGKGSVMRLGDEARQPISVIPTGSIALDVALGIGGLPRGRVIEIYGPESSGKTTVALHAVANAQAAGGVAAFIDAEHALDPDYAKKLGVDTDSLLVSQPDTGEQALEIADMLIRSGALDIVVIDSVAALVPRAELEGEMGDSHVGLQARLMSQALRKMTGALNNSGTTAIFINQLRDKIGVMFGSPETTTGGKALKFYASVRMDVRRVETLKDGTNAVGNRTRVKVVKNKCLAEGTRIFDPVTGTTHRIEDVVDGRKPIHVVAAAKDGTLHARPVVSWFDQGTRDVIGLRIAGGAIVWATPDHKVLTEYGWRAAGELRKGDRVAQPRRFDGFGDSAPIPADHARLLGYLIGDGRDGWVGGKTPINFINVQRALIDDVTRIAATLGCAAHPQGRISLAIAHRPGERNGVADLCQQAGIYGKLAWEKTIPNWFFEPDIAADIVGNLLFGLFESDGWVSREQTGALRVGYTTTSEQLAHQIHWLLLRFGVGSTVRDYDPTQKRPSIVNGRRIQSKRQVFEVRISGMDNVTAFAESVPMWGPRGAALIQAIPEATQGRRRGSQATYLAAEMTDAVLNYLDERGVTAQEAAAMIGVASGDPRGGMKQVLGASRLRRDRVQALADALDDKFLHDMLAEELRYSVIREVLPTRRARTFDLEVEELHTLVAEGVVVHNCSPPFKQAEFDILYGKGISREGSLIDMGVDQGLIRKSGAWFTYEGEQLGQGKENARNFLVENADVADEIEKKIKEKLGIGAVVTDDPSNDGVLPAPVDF
Arbovirus inh – arbovirus infection inhibition; arbovirus infection cell-based antiviral screen; inhibition, % at 10 µM; actives 0.37% (n = 200,000); AID 1251;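 active means inhibition from about 30%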;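 further: bluetongue infection of BSR cells; cell survival read as ATP light after 72 h; 0% = infected wells without compound and 100% = uninfected wells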
* = called active by the depositor; ? = inconclusive; / = no result given.

SMILES | Mtb growth | Mtb betalactam | YopH PTP inh | RecA intein inh | Arbovirus inh
COc1ccccc1NC(=O)CSc1n[nH]c(-c2ccccn2)n1 | / | 0 | / | 0.9 | /
O=C(Nc1cccc(NC(=O)c2cccs2)c1)c1ccc(Br)cc1 | / | -20 | / | -0.2 | /
CC(C)(C)n1nc(-c2ccc(F)cc2)c2c(N)ncnc21 | 8% | -7 | 7 | -1.6 | -7
CC(=O)c1ccc(NC(=O)CSc2nnc(C3CC3)n2C)cc1 | / | -6 | / | -1.3 | /
Cc1cccc(NC(=O)CSCC(=O)N(C)CCOc2ccc(Cl)cc2)c1 | / | -1 | / | -1.5 | /
O=C(O)c1ccc(N2N=C(c3ccccc3)CC2c2ccccc2)cc1 (stereo not given) | / | 8 | / | -429 | /
Nc1nc2ccccc2n1/N=C/c1ccc([N+](=O)[O-])s1 | ? | 98 | -22 | 1.2 | -16
CC(NC(=O)CSC(=S)N1CCCC1)c1ccc(S(N)(=O)=O)cc1 (stereo not given) | / | -4 | / | 2.4 | /
COc1ccc2oc(-c3ccccc3[N+](=O)[O-])cc(=O)c2c1 | -4% | 0 | / | -0.1 | -22
CC(C)N1CCc2c(sc(NC(=O)c3ccc(S(=O)(=O)N4CCc5ccccc54)cc3)c2C(N)=O)C1 | 8% | 41 | / | -6.3 | -17
COC(=O)C1CCN(C(=O)Cc2ccc(C)cc2)CC1 | -6% | -4 | -9 | 1.6 | 8
O=C(CSc1ccc(-c2cccs2)nn1)c1cccs1 | 2% | -3 | / | 0.9 | 0
CCOC(=O)CSc1nnc(-c2ccccc2NC(=O)c2ccccc2)o1 | 2.8µM* | 86 | -55 | 0.3 | -2
Cn1nc(C(=O)NC(C)(C)C)c2ccccc21 | 71% | 2 | -19 | -0.6 | -5
CCOC(=O)/C(=C\c1ccccc1)C(=O)c1cc(C(C)=O)c(Nc2ccccc2)s1 | 9% | 2 | -4 | 6.8 | -32
CCO[C@@H]1OC(C(N)=O)=C[C@H](c2ccccc2)[C@H]1CCCO | -11% | -6 | / | -2.8 | -4
CC(C)(C)c1ccc(S(=O)(=O)N2CCCC2C(=O)NC2=NCCS2)cc1 (stereo not given) | 6% | -9 | -5 | -1.4 | 12
CCCC(=O)CN1C(=O)C2(OCCO2)c2ccccc21 | -8% | 0 | -26 | 1.7 | 1
Cc1ccccc1NC(=S)NC1CC2CCC(C1)N2Cc1ccco1 (stereo not given) | -18% | -3 | -1 | -0.1 | 11
Cc1nn(-c2ccccc2)c2nc(Cl)c(C(=O)O)cc12 | -3% | -9 | -9 | -4.5 | 0
COc1ccccc1C(=O)NCCC(=O)N1CC(=O)Nc2ccccc21 | -1% | -12 | -22 | 1.4 | 4
COc1cccc(C2Nc3ccccc3C(=O)N2Cc2ccccc2)c1 (stereo not given) | / | 3 | / | 5.6 | /
O=C(COc1c(F)c(F)c(C(F)(F)F)c(F)c1F)Nc1ccc(N2CCOCC2)c(Cl)c1 | / | -2 | -13 | 7.7 | -12
O=C(CSc1nnc(C2CC2)n1Cc1ccccc1)c1cc2ccccc2o1 | -6% | -5 | -28 | 4.8 | -2
CC(C)CCNC(=S)Nc1ccccc1F | 3% | 3 | -23 | 0.8 | 6
O=C(Nc1ccc(Br)c2cccnc12)c1ccc(Cn2cc(Cl)cn2)o1 | -6% | 5 | -24 | / | -9
O=C(NCC(c1ccco1)N1CCOCC1)C1CCCCC1 (stereo not given) | / | -11 | / | 2.1 | /
COc1ccc(OC)c(NC(=O)CCC(=O)Oc2ccc(C)cc2)c1 | / | -7 | / | 0.6 | /
O=C(NCc1ccccc1)c1ccc(Br)o1 | 10% | 7 | -28 | / | -2
CC(=O)c1c(N=CN(C)C)nc(C)nc1-c1ccccc1 | / | -8 | -27 | 1.5 | 5
Cc1ccc2nc(NC(=S)NC(=O)c3ccc(OC(C)C)cc3)sc2c1 | / | 0 | / | 2.4 | /
O=C(CCn1ccnc1)Nc1cc(Cl)ccc1O | / | -6 | / | 2.3 | /
COc1ccc(S(=O)(=O)N(CC(=O)N/N=C/c2cccs2)c2cc(C)cc(C)c2)cc1OC | 4% | 0 | -19 | 7.0 | 8
COc1ccc(/C=N/NC(=S)Nc2ccccc2)cc1COc1ccc(Br)cc1 | -3% | 33 | / | 2.1 | /
COc1cc(COc2ccc3c(C)c(Cc4ccccc4)c(=O)oc3c2C)cc(OC)c1OC | 8% | 9 | -39 | -2.8 | 3
Cc1ccc2cc3cc(C(=O)N4CCCCCC4)oc3nc2c1 | / | 70 | -62 | 1.2 | -9
CN1C(=O)/C(=C/C=C2/CCCN2C)N(C)C1=S | -9% | -11 | / | -4.6 | -3
CCOc1ccccc1NC(=O)Cn1c(=O)sc2ccccc21 | 5% | 3 | / | -0.5 | -5
O=C(Nc1cccc([N+](=O)[O-])c1)C1C2/C=C\CCCCC21 (stereo not given) | 1% | -1 | / | -0.6 | 3
CCCCNC(=O)O[C@@H]1C[C@H]2CCC(=O)N3CC[C@@H](C1)[C@@H]23 | / | 8 | / | 0.6 | /
Cc1ccc(-n2c(C)nn(-c3ncc(C(F)(F)F)cc3Cl)c2=O)cc1 | -3% | 1 | -4 | 0.7 | 4
CCN(CC)S(=O)(=O)c1ccc(Cc2ncc(C(F)(F)F)cc2Cl)s1 | 13% | -6 | -12 | 8.0 | 5
CCc1nccn1S(=O)(=O)c1cc(C)c(OC)cc1C | -13% | -3 | -1 | -0.4 | 9
CN1C(=O)Cc2cc(S(=O)(=O)N3CCN(c4cccc(Cl)c4)CC3)ccc21 | / | -5 | / | -0.8 | /
CCCOc1ccc(C(=O)OCC(=O)c2c(N)n(C)c(=O)n(C)c2=O)cc1OCC | 0% | 3 | / | -0.8 | 2
COc1ccc(Cl)cc1NC(=O)CSc1nnc(Cc2ccc(C)cc2)c(=O)[nH]1 | / | 0 | / | 2.7 | /
Cc1ccc(C)c(N2CCN(C(=O)c3cc(S(=O)(=O)N4CCOCC4)ccc3F)CC2)c1 | 10% | 11 | -18 | -3.1 | 13
Cc1nc2cc(NC(=O)N3CCCCC3)ccc2n1C | 3% | -2 | 10 | 1.6 | 9
Nc1nc2n(n1)C(c1ccc(F)cc1)CC(c1ccc(F)cc1)N2 (stereo not given) | -2% | -3 | -55 | -1.9 | 14
Cc1cc(C)c(NC(=O)NC(=O)c2ccc(F)cc2)c(C)n1 | 5% | -5 | -3 | 1.3 | -1

Part of the list above in order of number of heavy atoms, ascending.
SMILES | Mtb growth | Mtb betalactam | YopH PTP inh | RecA intein inh | Arbovirus inh
COc1ccc2oc(-c3ccccc3[N+](=O)[O-])cc(=O)c2c1 | -4% | 0 | / | -0.1 | -22
CCN(CC)S(=O)(=O)c1ccc(Cc2ncc(C(F)(F)F)cc2Cl)s1 | 13% | -6 | -12 | 8.0 | 5
O=C(CSc1nnc(C2CC2)n1Cc1ccccc1)c1cc2ccccc2o1 | -6% | -5 | -28 | 4.8 | -2

Other compounds follow.
SMILES | Mtb growth | Mtb betalactam | YopH PTP inh | RecA intein inh | Arbovirus inh
O=C(Oc1ccccc1N1C(=O)CCC1=O)c1ccco1 | -5% | 1 | -38 | 36* | 3
O=C(O)CCCNc1cc(N2CCC3(CC2)OCCO3)c2noc3c2c1C(=O)c1ccccc1-3 | / | 67 | 9 | / | -10
O=C(c1sccc1Br)N1CCN(Cc2ccc3c(c2)OCO3)CC1 | -4% | -6 | / | 1.6 | /
CCCc1cc(=O)[nH]c(SCC(=O)Nc2oc(C)c3c(C)n[nH]c(=O)c23)n1 | / | -1 | / | 3.7 | /
COc1cc(/C=N/NC(=O)c2c(C)nnn2-c2nonc2N)ccc1O | -2% | 5 | / | -3.6 | -6
O=C(O)c1ccc2c(c1)C(=O)N(c1ncccn1)C2=O | 3% | 3 | -3 | -6.2 | 6
COc1ccc(-c2c(C)nn(-c3ccccc3)c2NC(C)=O)cc1OC | / | -11 | / | -0.8 | /
Cc1ccc(C(=O)N/N=C2\CCc3ccccc32)c(C)c1 | 0% | 0 | -22 | 2.1 | -6
Cc1sc2nc3n(c(=O)c2c1C)NC(=O)CC3 | -2% | 43 | -12 | -0.9 | -3
CC(C(=O)Nc1cccc(S(=O)(=O)N2CCOCC2)c1)N1CCN(c2ccc(F)cc2)CC1 (stereo not given) | 3% | 4 | / | 0.2 | -4
COc1ccc(-n2nc(C(=O)Nc3ccc4c(c3)OCO4)c3ccccc3c2=O)c(OC)c1 | 5% | 16 | -21 | / | -12
CCOc1cccc2sc(N(CCN(CC)CC)C(=O)c3cccc([N+](=O)[O-])c3)nc12 | 3% | -3 | / | -0.3 | 1
O=C(COc1ccc(C(=S)N2CCC(Cc3ccccc3)CC2)cc1)N1CCOCC1 | -3% | 0 | / | 4.0 | -10
C/C(=N\O)C(=O)C(CN1CCCCC1)CN1CCCCC1 | -5% | -3 | -20 | / | 20
NC(=Nc1ccccc1)Nc1ccccc1 | / | 0 | / | 5.7 | /
Cc1ccc(-c2nnn(CC(=O)N3CCCCC3)n2)c(-n2cnnn2)c1 | -15% | -5 | -45 | 0.7 | 9
COc1cccc(CNCC(O)COc2ccc(C(=O)c3ccccc3)cc2)c1 (stereo not given) | / | 5 | / | 0.1 | /
CN(C)c1nc2ccccc2n(C)c1=O | 8% | -7 | / | 2.8 | 0
COCCN(C(=O)COC(=O)CCc1ccc(OC)cc1)c1c(N)n(Cc2ccccc2)c(=O)[nH]c1=O | / | -10 | / | -1.5 | /
Cc1ccc(C)c(NC(=O)c2cc(-c3cc(C)cc(C)c3O)n[nH]2)c1 | / | -4 | / | -1.1 | /
O=C(c1cnn2cccnc12)N1CCN(Cc2ccc3c(c2)OCO3)CC1 | 1% | -4 | 19 | -3.2 | 5
NC(=O)CC(NC(=O)Cc1cccc2ccccc12)c1ccc(NC2CCN(Cc3ccccc3)CC2)c([N+](=O)[O-])c1 (stereo not given) | / | 2 | / | 1.3 | /
Cc1noc(C)c1COC(=O)c1cc(F)c(F)cc1Cl | 4% | 12 | -37 | 1.3 | 3
Cc1ccc(CC(SCc2ccccc2)C(=O)O)cc1C (stereo not given) | / | 12 | / | 3.3 | /
COc1ccc(-c2nsc(SCC(=O)NCc3ccc4c(c3)OCO4)n2)cc1 | 7% | 11 | -20 | -1.8 | 3
CSc1ccc(CN(C)Cc2nc3ccccc3c(=O)[nH]2)cc1 | -5% | 19 | / | -1.4 | /
C=CCn1c(SCc2nc3sc(C(=O)O)c(C)c3c(=O)[nH]2)nnc1-c1ccc(F)cc1 | 4% | -8 | / | -0.1 | 3
CC(C(=O)c1ccc(Br)cc1)[n+]1cccc(NC(=O)c2ccccc2)c1 (stereo not given) | 7% | -9 | -43 | -0.9 | 18
Cc1ccccc1COc1ccc(-c2nnn(CC(=O)O)n2)cc1 | / | -2 | / | 1.8 | /
CCN(CC)CCCn1c2c(c(SCC(=O)N3CCc4ccccc43)nc1=O)CCC2 | / | -7 | / | -1.9 | /

One compound at a time (already shown). Screens in order: Mtb growth | Mtb betalactam | YopH PTP inh | RecA intein inh | Arbovirus inh
Record of `Nc1nc2ccccc2n1/N=C/c1ccc([N+](=O)[O-])s1` = ? | 98 | -22 | 1.2 | -16
Record of `O=C(CSc1ccc(-c2cccs2)nn1)c1cccs1` = 2% | -3 | / | 0.9 | 0
Record of `O=C(NCc1ccccc1)c1ccc(Br)o1` = 10% | 7 | -28 | / | -2
Record of `CCN(CC)S(=O)(=O)c1ccc(Cc2ncc(C(F)(F)F)cc2Cl)s1` = 13% | -6 | -12 | 8.0 | 5
Record of `Cc1ccc2cc3cc(C(=O)N4CCCCCC4)oc3nc2c1` = / | 70 | -62 | 1.2 | -9

The list continues:
SMILES | Mtb growth | Mtb betalactam | YopH PTP inh | RecA intein inh | Arbovirus inh
COc1ccccc1NS(=O)(=O)c1ccc(-c2cnc(C3CC3)o2)cc1 | / | -2 | / | -8.9 | /
O=C(Oc1ccc(Cl)cc1)N1CCOCC1 | / | 9 | / | -0.9 | /
COc1ccc(NC(=O)C(Sc2ccccc2)c2ccccc2)c(OC)c1 (stereo not given) | 1% | 2 | -5 | 7.8 | -14
O=C1NC(=O)N(Cc2ccccc2)C(=O)/C1=C\C=C\c1ccco1 | -1% | 83 | / | 0.4 | 1
COc1ccc(CCNC(=O)CSc2nc3ncccc3[nH]2)c(OC)c1 | / | 1 | / | -5.4 | /
CCN(CC)S(=O)(=O)c1ccc(N2CCCC2)c(NC(=O)c2ccccc2OC)c1 | -4% | -3 | / | 0.7 | /
N#C/C(=C(/O)CSc1ccccc1C(=O)O)c1nc2ccccc2s1 | -3% | -2 | -17 | -5.9 | -1
CCOC(=O)C(C)/C(C)=N/NC(N)=S (stereo not given) | ? | 100 | -12 | -1.1 | 1
CC(=O)Nc1nc(-c2ccccc2)nc(-c2ccccc2OC(C)=O)n1 | 12% | 6 | -17 | 3.2 | -7
O=C(Cn1[nH]c(=O)c2ccccc2c1=O)Nc1cccnc1 | -1% | -25 | / | -1.2 | 5
CN(C)c1ccc(C2N(c3ccc(F)cc3)C(=O)C3CCCN32)cc1 (stereo not given) | -6% | -2 | -6 | -1.9 | -3

A portion of the library (hit frequency here may not be typical).
